Lassa entry inh: inhibitors of Lassa virus binding or cell entry; Lassa virus pseudotype entry inhibition, cell reporter; control for the full effect not named in the record; Potency, µM (doses to about 37.9 µM), inactives show at the highest dose activity change, negative = inhibition, actives largely listed as inhibitors; 300,000 compounds, 1.2% hits; AID 540256; active means well fitted inhibition curve with a large enough effect; inconclusive means small, poorly fitted or top-dose-only effect, or effect the other way; inactive means flat fitted curve, though single readings scatter; tested in HEK293 cells; note: % is set by controls: 0 for no effect and ±100 for the full control effect; nearly all actives have a fitted effect of over 50% in size; luciferase read-out
NS1 function inh: inhibitors of influenza NS1 protein function; S. cerevisiae slowed by influenza A NS1, growth recovery by OD600; Potency, µM (titrated, usually from 46.1 µM), for the others: at the highest dose activity, positive = more growth; 270,000 compounds, 0.4% hits; AID 2326; active means well fitted rising curve with a large enough effect; inconclusive means small, poorly fitted or top-dose-only effect; inactive means no such curve, though single readings can be large or run the other way; note: nearly all actives have a fitted effect of over 50% in size
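Compounds were scored for reversing the slow growth caused by influenza A NS1 in S. cerevisiae, measured by optical density at 600 nm. Assay medium contained 2% galactose at pH 6.0; NS1-free yeast of the same strain were the positive control.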
RE007 growth inh: less growth of the S. pombe RE007 Vpr strain. 360,000 compounds, 0.21% hits. AID 651644. S. pombe RE007 Vpr strain, BacTiter-Glo ATP luminescence, 24 h; control for the full effect not named in the record. Potency, µM (titrated, usually from 92.2 µM), for inactives: top-dose activity change, negative = less growth; active = well fitted falling curve with a large enough effect; inconclusive = small, poorly fitted or top-dose-only effect; inactive = no such curve, though single readings can be large or run the other way;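 note: % is set by controls: 0 for no effect and ±100 for the full control effect; nearly all actives have a fitted effect of over 50% in size; the assay follows cell death caused by Vpr and the record does not say whether a fall means rescue or toxicity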
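Fission yeast strain RE007, carrying one chromosomally integrated HIV-1 vpr copy, was seeded at OD 0.01 in PMG+AL medium with 23 nL pinned compound. After 24 h at 30 °C and 99% humidity, viability was read by BacTiter-Glo luminescence.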
Cruzain inh noDet: blocks cruzain activity in detergent-free assay; P25779; purified cruzain, Z-FR-AMC fluorescence, no detergent; Potency, µM, for the others: max response, negative = inhibition, most hits filed as inhibitors; 200,000 compounds, 2.3% hits; AID 1476;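 note: plate controls were enzyme without inhibitor for no effect and buffer without enzyme for full effect; nearly all actives have a fitted effect of over 40% in size; top concentration of the series not given in the record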
Target sequence (P25779 123-467 limits assumed): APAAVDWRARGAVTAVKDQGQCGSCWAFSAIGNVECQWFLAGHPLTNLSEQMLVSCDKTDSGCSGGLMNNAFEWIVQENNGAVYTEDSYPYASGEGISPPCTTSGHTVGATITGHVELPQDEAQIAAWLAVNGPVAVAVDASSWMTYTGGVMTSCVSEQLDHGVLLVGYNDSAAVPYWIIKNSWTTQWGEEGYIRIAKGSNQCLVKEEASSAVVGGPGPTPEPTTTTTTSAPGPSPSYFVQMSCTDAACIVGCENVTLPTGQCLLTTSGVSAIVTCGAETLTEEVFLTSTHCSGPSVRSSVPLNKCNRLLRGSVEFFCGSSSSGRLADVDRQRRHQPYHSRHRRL
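Purified cruzain at 1.5 nM, pre-incubated 15 min with compound at room temperature in 100 mM sodium acetate pH 5.5, 5 mM DTT, 0.00005% Triton X-100. Reaction started with 2 uM Z-FR-AMC; AMC fluorescence increase over 60 s gives rate.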
SARS PLP yeast: SARS-CoV PLP inhibition in yeast; AID 485353; Potency, µM (top dose mostly 32.9 µM), inactives show at the top dose activity, positive = growth rescue; S. cerevisiae expressing SARS-CoV PLpro, growth rescue; control for the full effect not named in the record; 330,000 compounds, 0.19% hits; active means well fitted rising curve with a large enough effect; inconclusive means small, poorly fitted or top-dose-only effect; inactive means no such curve, though single readings can be large or run the other way; note: 0% is about no effect; nearly all actives have a fitted effect of over 55% in size; growth read by luminescence after 48 h
Cruzain Triton: blocks cruzain activity in presence of Triton detergent | purified cruzain, Z-FR-AMC fluorescence, 0.01% Triton | Potency, µM, without a hit: max response, negative = inhibition, most hits filed as inhibitors | 200,000 compounds, 0.43% hits | AID 1478;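 note: plate controls were neutral wells for no effect and buffer without enzyme for full effect; nearly all actives have a fitted effect of over 40% in size; top concentration of the series not given in the record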
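Z-FR-AMC hydrolysis (2 uM substrate) by cruzain (1.5 nM) monitored kinetically at ex 360/em 450 nm after 15 min room-temperature compound exposure; 0.01% Triton X-100, pH 5.5, 5 mM DTT.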
MARV entry inh: Marburg virus entry inhibition | Marburg virus pseudotyped entry inhibition, cell reporter; control for the full effect not named in the record; about a third of the inactives were read at about 46 µM | 300,000 compounds, 1.8% hits | Potency, µM (top dose mostly 37.8 µM), for the others: top-dose activity change, negative = inhibition, usual class: inhibitors; active = well fitted inhibition curve with a large enough effect; inconclusive = small, poorly fitted or top-dose-only effect, or effect the other way; inactive = flat fitted curve, though single readings scatter; tested in HEK293 cells; about a fifth of its hits are not listed in these tables; note: % is set by controls: 0 for no effect and ±100 for the full control effect; luciferase read-out
StopGo reporter: FMDV 2A StopGo reporter, luciferase signal; human cells with a luciferase reporter of 2A StopGo recoding; control for the full effect not named in the record; Potency, µM (doses to about 57.9 µM), inactives show at the highest dose signal change, negative = less light; 410,000 compounds, 1.2% hits; AID 1159524; active = well fitted falling curve with a large enough effect; inconclusive = small, poorly fitted or top-dose-only effect; inactive = no such curve, though single readings can be large or run the other way; tested in HEK293T cells; note: % is set by controls: 0 for no effect and ±100 for the full control effect; nearly all actives have a fitted effect of over 45% in size; luciferase light after 4 h
The depositor's hits bear a star; ? = inconclusive; · = not tested or not shown; & = joins results of further samples; ! = a repeat was not active; [ ] = dose if it differs, or a comment. Unless noted, calls come from the whole dose curve; as a rule, active = well fitted curve in the direction sought with a large enough effect; inconclusive = small, poorly fitted or top-dose-only effect, or another doubt; inactive = no such curve, though single readings can be large; an effect the other way counts as inactive or inconclusive. Potency is the fitted concentration of half-maximal effect.

SMILES | Lassa entry inh | NS1 function inh | RE007 growth inh | Cruzain inh noDet | SARS PLP yeast | Cruzain Triton | MARV entry inh | StopGo reporter
COC(=O)C(C)(N)Cc1ccc(O)cc1 (stereo not drawn) | ? | -3% | 2%[18.4 µM] | 1% | · | 9.3% | 2.8µM*! | -17%
COc1ccc(OCCNC(=O)Nc2cc(F)c(F)cc2Cl)cc1 | 17%[46.1 µM] | · | 0% | · | -1% | · | 5%[46.1 µM] | 0%
Fc1ccc(NC(=S)NCc2cccs2)cc1 | 6% | -16% | 4% | -2% | 25% | -1.2% | ? | 28%
CCOC(=O)c1[nH]nc(-c2cc(CC)c(O)cc2O)c1-c1cscn1 | ? | 20% | 4% | 1% | 3% | 1.9% | ? | 8.9µM*
Cc1cc(C)cc(NC(=O)c2sc3nc(-c4ccccc4)cn3c2C)c1 | 2%[46.1 µM] | · | · | ? | · | -6.0% | · | -9%
CC(C)CC(=O)Nc1ccc(Cc2ccncc2)cc1 | -1%[46.1 µM] | 3% | 0% | · | -1% | · | 8%[46.1 µM] | -13%
COC(=O)CC(NC(=O)c1ccc(C)cc1)c1ccc2c(c1)OCO2 (stereo not drawn) | 1% | -10% | -16% | 2% | 12% | 4.1% | 9% | -3%
CCOC(=O)C(Cc1c[nH]c2ccccc12)NC(=O)CNC(C)=O (stereo not drawn) | -2% | -1% | 5% | -5% | -15% | 4.1% | -2% | 10%
O=C(c1ccc(Br)cc1)N1CCCC1 | 4% | -6% | -9% | -10% | · | 6.3% | -7% | 51%[activator]
CCN1CCN(C(=O)Cc2coc3ccc4ccccc4c23)CC1 | -1% | 6% | -2% | 2% | 4% | -4.4% | 3% | -1%
CCCCCC(=O)Nc1cc(S(=O)(=O)N2CCOCC2)ccc1N1CCCC1 | -2% | 9% | -5% | · | 0% | · | -1% | -4%
COC(=O)[C@H](Cc1ccccc1)NC(=O)N(C)Cc1ccccc1 | 1% | 12% | 1% | · | 0% | · | 1%[46.1 µM] | 15%
CCOC(=O)CC1C(C(=O)OCC)ON2OC(C(=O)OC)C(C(=O)OCC)C12 (stereo not drawn) | 5% | 0% | 1% | -2% | -2% | -7.8% | 0% | 10%
O=C(c1cc(C(=O)NCc2ccc(Cl)cc2)c(=O)n(Cc2ccc(Cl)cc2)c1)c1cc(F)ccc1O | ? | 5% | -10% | 16µM* | -21% | -4.3% | 2% | -9%
C(=N\Nc1nc(N2CCOCC2)nc(N2CCOCC2)n1)/c1cccnc1 | 4% | 1% | 3% | -12% | 8% | -0.5% | 7% | -14%
COc1ccc(NC(=O)c2cccc(N3C(=O)C4C5C=CC(C6CC56)C4C3=O)c2)cc1 (stereo not drawn) | -19% | 7% | 4% | · | -1% | · | ? | 40µM*
O=C(c1cccc(OC2CCN(Cc3cc(F)cc(F)c3)CC2)c1)N1CCCC1 | · | -6% | 11% | · | 8% | · | · | -11%
O=c1[nH]c2ccccc2n1CCCSCCCn1c(=O)[nH]c2ccccc21 | ? | 14% | 0% | 15% | 9% | -9.9% | ? | 20µM*
CC(=O)c1cccc(NC(=O)c2ccc(Cl)c(S(=O)(=O)N3CCOCC3)c2)c1 | 0%[46.1 µM] | · | · | 0% | · | -1.5% | · | ?
O=C(Nc1ccccc1Cc1ccccc1)c1ccccc1F | 0% | -4% | 19% | · | -5% | · | -18%[46.1 µM] | -1%

Looked up one by one from the list above (2):
SMILES | Lassa entry inh | NS1 function inh | RE007 growth inh | Cruzain inh noDet | SARS PLP yeast | Cruzain Triton | MARV entry inh | StopGo reporter
C(=N\Nc1nc(N2CCOCC2)nc(N2CCOCC2)n1)/c1cccnc1 | 4% | 1% | 3% | -12% | 8% | -0.5% | 7% | -14%
O=C(c1cccc(OC2CCN(Cc3cc(F)cc(F)c3)CC2)c1)N1CCCC1 | · | -6% | 11% | · | 8% | · | · | -11%

Other records follow.
SMILES | Lassa entry inh | NS1 function inh | RE007 growth inh | Cruzain inh noDet | SARS PLP yeast | Cruzain Triton | MARV entry inh | StopGo reporter
NNc1nc2c(Cl)cccc2s1 | 17% | 8% | -20% | -3% | -39% | 1.2% | ? | 22%
O=c1[nH]c(C2CCN(S(=O)(=O)Cc3ccccc3)CC2)nc2c1nnn2Cc1ccccc1 | -17% | 8% | 21% | · | 6% | · | -4%[46.1 µM] | -22%
Cc1cccc(NC(=O)c2cnccn2)c1 | 10% | -10% | -21% | · | -2% | · | -14% | 39%[activator]
C=CCN1C(=O)C2(NC(=O)c3ccccc3N2)c2ccccc21 (stereo not drawn) | ? | 4% | -3% | · | 0% | · | ? | 6%
O=C(C1CCCN(S(=O)(=O)c2cccc3nsnc23)C1)N1CCN(c2ccccn2)CC1 (stereo not drawn) | -54% | -21% | 0% | -2% | -3% | -6.7% | ? | 28µM*
COCc1cc(C)nc2sc(C(=O)OC)c(N)c12 | 9% | -6% | 1% | 25% | -6% | 0.3% | -22% | -19%
CCCCNC(=O)c1cc2cc(CC)ccc2[nH]1 | · | -7% | 10% | · | -3% | · | · | -1%
COc1cccc(COC(=O)c2ccc(-c3nnn(Cc4ccccc4)n3)cc2)c1 | -10%[46.1 µM] | · | · | 3% | · | 4.0% | 13%[46.1 µM] | 3%
CCOC(=O)N1C(=O)c2cc(OC)ccc2S1(=O)=O | 14% | -1% | -1% | -1% | 2% | 7.1% | -1% | 3%
COc1ccc(/C=C(\C#N)C(=O)C(C)(C)n2cncn2)cc1 | 28%[46.1 µM] | -1% | 1% | · | 1% | · | 7%[46.1 µM] | -3%
Nc1ncnc2nc(N3CCN(C(=O)c4ccccc4)CC3)[nH]c12 | -8% | -6% | 10% | -11% | 0% | 1.6% | 1% | -9%
CCc1ccc(Sc2cc(C(=O)NCc3cccc(OC)c3)c3ccccc3n2)cc1 | ? | · | · | -7% | · | 0.1% | · | -21%
CCc1ccc(C2CC(c3ccccc3)Nc3nc(N)nn32)cc1 (stereo not drawn) | · | 5% | 3% | · | -1% | · | · | -21%
COc1ccc(Cl)cc1C(=O)Nc1nc2ccccc2[nH]1 | ? | -35% | -4% | · | -1% | · | ? | 11µM*
CN1CCN(/N=C/c2nc(-c3ccccc3)n3ccccc23)CC1 | 2% | 12% | 0% | -2% | 6% | -7.3% | 15% | -7%
O=C(Cn1[nH]c(=O)c2ccccc2c1=O)NNC(=O)c1ccccc1 | · | 4% | 9% | · | 0% | · | · | -6%
O=C(CCC(=O)N1CCOc2ccccc21)Nc1cc(F)ccc1F | · | -13% | 18% | · | ? | · | · | -1%
CNC(=O)c1[nH]nc2c1CCc1ccccc1-2 | ? | -10% | 5% | · | -5% | · | ? | 0%
COc1ccc(C(=O)CSc2nnc(-c3cc(C)on3)o2)cc1 | 1% | 10% | -8% | -16% | -6% | -4.9% | 2% | 7%
Cn1cc([C@@H]2C[C@H]3CN(C4CCCC4)C(=O)[C@]34CCCN24)c(-c2ccccc2)n1 | -15%[46.1 µM] | 4% | -15% | · | -1% | · | -12% | -18%
COc1cccc2c(=O)n(CC(=O)N3CCC(C)CC3)ccc12 | · | -10% | -4% | 10% | -2% | -6.5% | · | 10%
Cc1ccc2c(c1)C1CN(C)CCC1N2C(=O)COc1ccc(S(=O)(=O)N2CCOCC2)cc1 (stereo not drawn) | 4% | -8% | -9% | 0% | 3% | 3.7% | -2%&11% | ·
Cc1ccc(C)c(NC(=O)N2CCc3cc(S(=O)(=O)N4CCC(C)CC4)ccc32)c1 | -1%[46.1 µM] | · | · | 2% | · | -3.9% | -27%[46.1 µM] | -14%
CCN(CC)C(=O)c1cn(CCC#N)nc1-c1ccc2ccccc2c1 | -12% | 7% | -9% | · | -1% | · | 0% | 7%
Cc1cc(F)ccc1S(=O)(=O)Nc1ccccc1C(=O)Nc1ccccc1N1CCOCC1 | -8% | 0% | 8% | -24% | 5% | 0.6% | ? | -29%
Cc1ccc(CNC(=O)Cn2c3ncccc3c(=O)n2-c2ccccc2)cc1 | 0%[46.1 µM] | · | · | -12% | · | -10% | · | 11%
CC(=O)c1ccc(NC(=O)Nc2sc(NS(=O)(=O)c3ccccc3)nc2C)cc1 | 8% | 1% | -14% | · | 2% | · | 13%[14.2 µM] | 25%
CCc1nc(N)nc(N)c1-c1ccc(Cl)cc1 | 3.3µM* | -7% | -2% | -4%&-6%&-5%&-1% | 1% | 1.7%&-1.4%&1.6%&-1.2% | ? | -9%&-13%
Cc1cc(C)n(CCO)c(=O)n1 | -3% | -5% | 0% | 4% | 9% | 7.0% | 4% | 18%
Cc1nc2nc(C)c(CCC(=O)NC3CCCCC3)c(C)n2n1 | -10%[46.1 µM] | · | 4% | · | 1% | · | 5%[46.1 µM] | 1%
COCCn1nnnc1C1(N(Cc2cc3cc(C)ccc3[nH]c2=O)CC2CCCO2)CCN(C)CC1 (stereo not drawn) | 15% | 0% | -5% | -4% | 3% | -4.9% | -4%[46.1 µM] | -10%
Cc1ccc(NC(=O)CNc2ccc(Cl)c(Cl)c2)cc1S(=O)(=O)N(C)C | ? | 5% | 14% | -5% | -13% | -9.1% | ? | ?
CSc1ccccc1NC(=O)Nc1ccccc1 | 28%[14.3 µM] | -74% | -19% | -15% | -17% | 0.8% | ? | 48%[activator]
COc1ccc(C(=O)CCC(=O)Nc2ccc(Cl)cc2)cc1 | · | -5% | 2% | · | -8% | · | · | 7%
CCOc1ccc(/C=C2/C(=O)NC(=O)N(CCc3ccc(F)cc3)C2=O)cc1 | 2% | ? | -9% | 10% | 24% | -2.6% | 5% | 5%

Of the compounds above, three contain two or more sulfur atoms.
SMILES | Lassa entry inh | NS1 function inh | RE007 growth inh | Cruzain inh noDet | SARS PLP yeast | Cruzain Triton | MARV entry inh | StopGo reporter
Fc1ccc(NC(=S)NCc2cccs2)cc1 | 6% | -16% | 4% | -2% | 25% | -1.2% | ? | 28%
O=C(C1CCCN(S(=O)(=O)c2cccc3nsnc23)C1)N1CCN(c2ccccn2)CC1 (stereo not drawn) | -54% | -21% | 0% | -2% | -3% | -6.7% | ? | 28µM*
CC(=O)c1ccc(NC(=O)Nc2sc(NS(=O)(=O)c3ccccc3)nc2C)cc1 | 8% | 1% | -14% | · | 2% | · | 13%[14.2 µM] | 25%
